VDR inhibitor = blocks the human vitamin D receptor | Potency, µM, for the others: max response, negative = inhibition, actives largely listed as inhibitors | VDR-SRC2-3 peptide fluorescence polarization, 2 h | AID 504847 | 400,000 compounds, 0.93% hits | P11473; active means well fitted inhibition curve with a large enough effect; inconclusive means small, poorly fitted or top-dose-only effect, or another doubt; inactive means no such curve, though single readings can be large or run the other way; further: series mostly up to about 120 µM
Target sequence (P11473 whole entry, looked up): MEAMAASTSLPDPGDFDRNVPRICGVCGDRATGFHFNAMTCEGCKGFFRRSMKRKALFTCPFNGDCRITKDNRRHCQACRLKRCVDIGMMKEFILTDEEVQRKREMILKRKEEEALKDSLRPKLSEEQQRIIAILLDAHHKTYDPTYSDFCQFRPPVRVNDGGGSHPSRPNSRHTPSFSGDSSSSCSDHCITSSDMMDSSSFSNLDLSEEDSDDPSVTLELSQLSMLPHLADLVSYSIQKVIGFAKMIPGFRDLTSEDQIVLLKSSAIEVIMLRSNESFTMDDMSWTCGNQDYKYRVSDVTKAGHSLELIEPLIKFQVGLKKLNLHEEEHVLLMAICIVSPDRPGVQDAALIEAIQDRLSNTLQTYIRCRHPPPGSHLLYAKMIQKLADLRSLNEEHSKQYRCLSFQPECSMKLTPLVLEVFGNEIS
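The screen uses fluorescence polarization to detect compounds that interfere with recruitment of the SRC2-3 coactivator peptide to VDR; plates are read after 2 h at room temperature.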
* = called active by the depositor; ? = inconclusive; & = joins results of further samples; [ ] = dose if it differs, or a comment. On the % scale 0 is the no-effect control and ±100 the full control effect; potency means the concentration at half of the fitted maximal effect. Some of the compounds tested. The share of hits here may be higher or lower than overall.

SMILES | VDR inhibitor
Cc1ccccc1-c1cc(C(=O)NCc2ccc(OC(F)(F)F)cc2)n(CC2CC(c3cccnc3)=NO2)n1 (configuration not stated) | -9.4%
COC(=O)c1ccc2oc(=O)c(S(=O)(=O)c3ccc(C)cc3)cc2c1 | -3.9%
CN(C(=O)COC(=O)c1cccc(S(=O)(=O)N2CCOCC2)c1)C1CCS(=O)(=O)C1 (configuration not stated) | -14.5%
O=[N+]([O-])c1ccccc1CS(=O)(=O)c1ccccc1 | -0.2%
COc1ccccc1NS(=O)(=O)c1cccc(C(=O)OCC(=O)NC2CC2)c1 | -5.1%
COc1ccccc1NC(=O)Cc1csc(N)n1 | -7.0%
CCOc1ccc(N(CC(=O)N/N=C/c2cccnc2)S(C)(=O)=O)cc1 | -5.7%
Cc1cccc(Cc2nnc(CCC(=O)NCc3cn4ccccc4n3)o2)c1 | -6.7%
Cc1ccc(-c2ccc(=O)n(CC(=O)NCCCN3CCCCC3C)n2)cc1 (configuration not stated) | -3.3%
CCOC(=O)c1cccc(NC(=O)CCNS(=O)(=O)c2cccc3nonc23)c1 | -0.3%&-5.3%
Cn1c(N)c(C(=O)COC(=O)/C=C/c2ccc(F)cc2)c(=O)n(C)c1=O | -21.6%
Cn1c(=O)oc2cc(S(=O)(=O)NC(Cc3ccccc3)C(=O)NCc3ccccc3Cl)ccc21 (configuration not stated) | 7.4%
COc1ccc(N(CC(=O)Nc2c(C)n(C)n(-c3ccccc3)c2=O)S(=O)(=O)c2ccc(C)cc2)cc1 | 15.2%
CCCC(=O)NCc1nc2ccccc2n1CC(=O)c1ccccc1 | 3.0%
O=C(O)c1ccc([N+](=O)[O-])cc1-c1cc([N+](=O)[O-])ccc1C(=O)O | -9.0%
CC(=O)Nc1ccc(S(=O)(=O)N/N=C/c2ccc(C)o2)cc1 | -18.5%
CCOC(=O)C(C(=O)OCC)C(C(=O)OCC)N1CCOCC1 (configuration not stated) | 39.8µM*
CCN(c1ccc(OC)cc1)S(=O)(=O)c1ccc2c(c1)CCN2C(=O)CCC(=O)O | 7.6%
COc1ccc(Br)cc1CNC(=O)c1ccc2c(c1)nc1n2CCCCC1 | -1.8%
CCOC(=O)CN1CC(C)(C)N(CC(=O)OCC)CC1(C)C | -3.0%
CCOc1ccccc1C(=O)N1CCCCC1C (configuration not stated) | -5.2%
Cc1ccc(C)c(OCc2cc(C(=O)N3CCN(C(=O)c4ccco4)CC3)no2)c1 | -6.8%
CCOC(=O)C(=CNc1ccc(C(F)(F)F)cc1)C(=O)OCC | -17.6%
COc1ccc(/C=N/NC(=O)Cc2cccs2)cc1 | -10.5%
O=[N+]([O-])c1ccc(Sc2cc[n+]([O-])c3ccccc23)c([N+](=O)[O-])c1 | ?
NC(=S)Nc1ccc2cn[nH]c2c1 | -3.1%
Cn1cc(-c2nc3cnc(N4CCOCC4)nc3n(CCC#N)c2=O)c2ccccc21 | 0.0%
COc1ccc(NS(=O)(=O)c2ccc(C)c(C(=O)NC3CCN(Cc4ccccc4)CC3)c2)cc1 | -5.3%
COc1ccc(Cn2nnnc2C(c2ccc(N(C)C)cc2)N2CCC(C(N)=O)CC2)cc1 (configuration not stated) | -20.8%
O=S(=O)(c1ccc(Cl)c(C(F)(F)F)c1)N1CCN(CC(O)COc2ccccc2F)CC1 (configuration not stated) | -19.3%
CC(=O)N1CC[C@H]2CC(=O)CC[C@@]21C | 0.2%
CCCC(=O)Nc1cc(-c2nn(C)c(=O)c3ccccc23)ccc1OC | 27.7%
CCC(C)(C)NC(=O)C(c1ccc(C)cc1)N(Cc1cccs1)C(=O)c1ccc2c(c1)OCCO2 (configuration not stated) | -1.6%
CC(=O)Nc1cccc(NC(=O)Cn2cnc3c(oc4ccccc43)c2=O)c1 | 6.3%
Cc1ccc(CNC(=O)c2ccc(CN3CC(=O)N4CCCCC4C3=O)cc2)cc1 (configuration not stated) | 8.9%
CCN1CCN(c2nc(Nc3ccc(NC(C)=O)cc3)nc(Nc3ccc(NC(C)=O)cc3)n2)CC1 | -2.4%
Cc1n[nH]c(=O)nc1NCc1ccccc1 | 4.7%
COCCn1nnnc1CN1CCN(C(=O)c2ccco2)CC1 | -12.0%
OCC(O)C(O)[C@H](O[C@H]1OC(CO)C(O)C(O)C1O)[C@H](O)CO (some centres not stated) | 5.1%
CC(=O)N1c2ccc(S(=O)(=O)NCCC(=O)Nc3ncccc3C)cc2CC1C (configuration not stated) | 0.8%
O=C(NCCN1CCOCC1)/C(=C\c1ccccc1F)NC(=O)c1ccccc1 | -19.6%
Cc1cc(C)c(C(=O)NCCCN2CCOCC2)c(C)c1 | -27.7%
C[C@]12CCC(=O)CC1CCC1C2CC[C@@]2(C)C1CC[C@@]21CCO1 (some centres not stated) | -3.9%
COc1ccccc1CNC(=O)c1cc(=O)c2ccccc2o1 | 4.7%
Cc1cc(=O)n2c(n1)OC(CO)C2 (configuration not stated) | -8.9%
O=C(CSc1ccc(-c2cccc([N+](=O)[O-])c2)nn1)N1CCCCC1 | 10.4%
COC(=O)c1ccc(NC(=O)c2ccc(CN3CCOCC3)cc2)cc1 | -1.9%
CCC(C)(C)n1nnnc1C(c1ccccc1F)N1CCN(C(=O)c2ccco2)CC1 (configuration not stated) | -19.1%
Cc1ccc(/C(N)=N/OC(=O)CCC2CCCC2)cc1 | -9.1%
Cc1ccc(C(=O)N2CCN(c3ccc(NC(=O)COc4ccccc4C)cc3)CC2)cc1 | -3.1%
O=C(Cn1nnc2ccccc21)N1CCCCC1 | 5.2%
CCOc1ccc(Nc2cc(C)nc3nc(Cc4ccc(Cl)cc4)nn23)cc1 | 12.7%
CCN(CC(=O)Nc1ccc(NC(C)=O)cc1)C(=O)CCCc1nc2ccccc2c(=O)[nH]1 | 3.3%
Cn1cnc([N+](=O)[O-])c1SCC(O)CCl (configuration not stated) | -13.0%
Cc1cc(C)cc(NC(=O)CSc2n[nH]c(-c3cccnc3)n2)c1 | 8.2%
O=C(COC(=O)c1ccc(F)cc1Cl)NC1CCCCCCC1 | -4.1%
CN(c1ncc(C(F)(F)F)cc1Cl)N1C(=O)c2cccc([N+](=O)[O-])c2C1=O | 6.2%
CCn1c(=O)cc(SCC(=O)NCCCN2CCN(c3ccccc3F)CC2)c2ccccc21 | -8.3%
COc1ccc(CCn2c(-n3nc(C)cc3C)nc3c2c(=O)[nH]c(=O)n3C)cc1 | -22.9%
Cc1ccc(C(=O)NCc2ccc(N3CCN(C)CC3)cc2)cc1C | -3.0%
Additional entries follow.
SMILES | VDR inhibitor
O=C(c1ccc(F)cc1)C(CCCCCC(CN1CCOCC1)C(=O)c1ccc(F)cc1)CN1CCOCC1 (configuration not stated) | -11.7%
COCC(=O)Nc1c(C(=O)Nc2cccc(OC)c2)oc2ccccc12 | 1.3%
CC/C=C\C/C=C\C/C=C\CCCCCCCCCCCC(=O)O | 50.1µM*
O=C(CSc1nnc2ccccn12)NC(=O)c1cccc([N+](=O)[O-])c1 | 1.4%
CC1Cc2ccccc2N1C(=O)c1ccc(Br)o1 (configuration not stated) | -1.9%
Cc1nc(C)c(C(=O)NCc2ccc(Cl)cc2)o1 | 2.6%
Cc1cccc(CNC(=O)C2CCN(c3nn4cc(-c5ccc(F)cc5)nc4s3)CC2)c1 | 9.0%
COc1ccc(C(=O)NCc2csc(-c3cccs3)n2)cc1 | -6.3%
Cc1cc(O)cc(=O)n1Cc1ccco1 | 8.8%
CCOc1ccc(-n2c(C)nc3cc(C(=O)NCCCN4CCOCC4)ccc32)cc1 | -4.8%
Cc1csc(NC(=O)CSc2nccn2Cc2ccco2)n1 | 49.0%[activator]
COc1cc(/C=N/N2CCN(c3ccccc3OC)CC2)ccc1O | -2.6%
Cc1nc(N)c(C#N)c(-c2ccccc2)c1C | -1.3%
O=C(NCc1ccccc1CN1CCCCC1)c1ccccc1N1CCCC1=O | 0.7%
CC1CN(S(=O)(=O)c2cc(C(=O)NCCCN3CCCC3=O)ccc2Cl)CC(C)O1 (configuration not stated) | -10.0%
CC(C)Cc1nnc(NC(=O)CCC(=O)Nc2ccc3cn[nH]c3c2)s1 | -14.3%
CN1CCCN(C2C3CC4CC(C3)CC2C4)CC1 (configuration not stated) | -4.0%
Cc1nc(-n2nnc3ccccc32)c2c3c(sc2n1)CCCC3 | -9.6%
CCCCCCn1nc(C(=O)OCC(=O)c2c(N)n(C)c(=O)n(C)c2=O)c2ccccc2c1=O | -2.9%
Cc1sc(NC(=O)c2ccco2)c(C(c2ccccc2)N2CCC(C)CC2)c1C (configuration not stated) | ?
CC1CN(C(=O)CCC(=O)NCCCN2CCC(Cc3ccccc3)CC2)c2cc(Cl)ccc2O1 (configuration not stated) | 1.6%
CCCCSC1(SCCCC)N=C(N)C2(C#N)C(c3ccccc3)NC(C)=C(C)C12C#N (configuration not stated) | -16.2%
O=C(N/N=C\c1cc2c(cc1Cl)OCO2)c1cccnc1 | 0.1%
O=C(NCSC1=NCCS1)c1ccccc1 | 3.5%
CC1N=C2c3ccccc3N=C(SCC(=O)NCCc3ccc(Cl)cc3)N2C1=O (configuration not stated) | 10.6%
Cc1ccsc1/C=N/NC(=O)c1ccccn1 | -12.3%
CCc1cccc(CC)c1NC(=S)NCc1nc2ccccc2[nH]1 | 11.3%
Cn1c(N)c(C(=O)COC(=O)c2cc3ccccc3cc2O)c(=O)n(C)c1=O | 0.5%
CN(C)c1c([N+](=O)[O-])cc2[nH]c(=O)[nH]c2c1[N+](=O)[O-] | -6.6%
Cc1cc(Br)c(OCc2ccc(C(=O)N/N=C3\CC(=O)CC(C)(C)C3)cc2)c(Br)c1 | 7.8%
COc1ccc(C(CNC(=O)c2cccc(S(=O)(=O)Nc3ccc(Br)cc3)c2)N(C)C)cc1 (configuration not stated) | -13.2%
COc1ccc(CCNC(=O)CCNC(=O)N2CC(=O)Nc3ccccc32)cc1 | -24.5%
COc1ccc(S(=O)(=O)N2CCCCC2)cc1NC(=O)c1ccc2c(c1)OCO2 | -13.3%
O=c1[nH]c(=O)n(Cc2ccco2)c2c1C(C(F)(F)F)(C(F)(F)F)N=C(C1CCCCC1)N2 | 10.1%
O=C(CCNC(=O)c1ccc(Br)cc1)NCCCN1CCCC1=O | -6.2%
CCCn1c(SCc2cc(=O)[nH]c3ccccc23)nc2c1c(=O)n(C)c(=O)n2C | -0.9%
O=C(Nc1ccc2c(c1)OCO2)N1CCN(c2ccccc2)CC1 | 2.5%
O=C(Nc1ccon1)c1cccc(S(=O)(=O)N2CCCCCC2)c1 | 10.0%
CCCS(=O)(=O)N1CCN(CC2CC=CCC2)CC1 (configuration not stated) | -22.8%
CN(CC(=O)Nc1ccccn1)S(=O)(=O)c1ccc(Cl)cc1 | -13.4%

Brought forward from above: three entries, followed by the next part.
SMILES | VDR inhibitor
O=C(Nc1ccon1)c1cccc(S(=O)(=O)N2CCCCCC2)c1 | 10.0%
CCCS(=O)(=O)N1CCN(CC2CC=CCC2)CC1 (configuration not stated) | -22.8%
CN(CC(=O)Nc1ccccn1)S(=O)(=O)c1ccc(Cl)cc1 | -13.4%
CCc1ccc2[nH]c(C(=O)Nc3ccc4c(c3)OCO4)cc2c1 | -20.3%
CCN(CCN(C)C)C(=O)C1CCN(S(=O)(=O)c2c(C)noc2/C=C/c2ccccc2F)CC1 | 6.9%&6.8%
COc1ccc(CCC(C)NCc2ccc(F)cc2)cc1 (configuration not stated) | -6.8%
CC(C)(C)C(=O)Nc1ccc(-c2cn3ccsc3n2)cc1 | 9.9%
O=c1[nH]c(/C=C/c2ccc(Br)cc2)nc2ccccc12 | 16.0%
CCN(CC)S(=O)(=O)c1ccc(N/N=C/c2ccc(O)cc2)nc1 | -5.0%
CCCC1(C(=O)OCC)NC(c2cc(OC)c(OC)c(OC)c2)C2C(=O)N(CC)C(=O)C21 (configuration not stated) | 0.0%
O=C(c1cccc(N2C(=O)c3ccccc3C2=O)c1)N1CCCCCC1 | -20.7%
COc1ccc(OCC(=O)NCCS(=O)(=O)N2CCN(c3ccc(F)cc3)CC2)cc1 | -6.3%
COc1ccc(CNC(=O)CN(c2ccc(C(C)=O)cc2)S(=O)(=O)c2ccc(C)cc2)cc1OC | -5.4%
Cc1ccc(NC(=O)c2oc3ccc(S(=O)(=O)N(C)C4CCCCC4)cc3c2C)cc1Cl | -0.3%
N/C(=N\OC(=O)c1cc(-c2ccccc2)nc2ccccc12)c1ccc(Cl)cc1 | -9.3%
Cc1cc(C)cc(NC(N)=S)c1 | -28.8%
COc1ccc(Nc2ccc3c(c2)=NC2(CCCCC2)[N+]=3[O-])cc1 | ?
CC(C)N(Cc1cnn(C)c1)Cc1nc(-c2ccc(Cl)cc2)no1 | -1.0%
CCN1CCN(C(=S)Nc2ccc3nc4n(c(=O)c3c2)CCCCC4)CC1 | 27.4%
O=C(O)CC(NC(=O)C1CCCCC1)c1ccc(OC2CCCC2)cc1 (configuration not stated) | 0.0%
O=C(NC1CC1)c1cccc(NC(=O)c2cnn(-c3ccccc3)n2)c1 | 5.8%
CC(C)(C)SCCNC(=O)c1ccccc1 | 13.6%
COc1ccccc1C/C(N)=N/OC(=O)COc1ccc(C)cc1 | -29.1%
Cn1nccc1C(=O)OCC(=O)Nc1ccc(S(N)(=O)=O)cc1 | -6.9%
NC(=O)c1cc(S(=O)(=O)N2CCCCC2)cs1 | -10.2%&0.4%
CCCCCCCNc1cccc(C)c1 | -12.5%

7 compounds from above, arranged by the value under VDR inhibitor, lowest first.
molecule | VDR inhibitor
Cc1ccccc1-c1cc(C(=O)NCc2ccc(OC(F)(F)F)cc2)n(CC2CC(c3cccnc3)=NO2)n1 (configuration not stated) | -9.4%
Cn1nccc1C(=O)OCC(=O)Nc1ccc(S(N)(=O)=O)cc1 | -6.9%
CC1Cc2ccccc2N1C(=O)c1ccc(Br)o1 (configuration not stated) | -1.9%
CC(C)N(Cc1cnn(C)c1)Cc1nc(-c2ccc(Cl)cc2)no1 | -1.0%
O=C(Nc1ccc2c(c1)OCO2)N1CCN(c2ccccc2)CC1 | 2.5%
COc1ccccc1CNC(=O)c1cc(=O)c2ccccc2o1 | 4.7%
O=C(Nc1ccon1)c1cccc(S(=O)(=O)N2CCCCCC2)c1 | 10.0%
